Compound activity (PubChem BioAssay)
Polio RdRp inh: poliovirus RdRp elongation inhibitors, primary screen, biochemical, fluorescence polarization, total intensity; Genome polyprotein (Poliovirus type 1 (strain Mahoney)), P03300; poliovirus polymerase elongation; active compounds read low; % elongation, % (compound at 16.7 µg/mL); 150,000 tested, 0.66% active; in the data active means % elongation below about 90%; further: some results filed as inactive read as strong as hits
Target sequence (P03300 1749-2209 limits assumed): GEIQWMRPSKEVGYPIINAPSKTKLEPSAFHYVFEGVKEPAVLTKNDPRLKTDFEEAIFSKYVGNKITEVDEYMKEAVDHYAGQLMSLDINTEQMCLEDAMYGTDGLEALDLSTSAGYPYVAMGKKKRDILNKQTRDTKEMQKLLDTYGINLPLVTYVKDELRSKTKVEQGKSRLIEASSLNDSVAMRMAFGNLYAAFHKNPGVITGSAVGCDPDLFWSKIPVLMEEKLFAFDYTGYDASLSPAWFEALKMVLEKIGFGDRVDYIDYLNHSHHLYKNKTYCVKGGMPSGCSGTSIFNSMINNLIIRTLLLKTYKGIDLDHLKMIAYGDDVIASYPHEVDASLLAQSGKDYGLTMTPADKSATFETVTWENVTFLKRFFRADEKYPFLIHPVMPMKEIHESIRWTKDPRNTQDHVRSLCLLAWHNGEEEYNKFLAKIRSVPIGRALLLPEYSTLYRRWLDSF
Mtb MbtI inh: MbtI salicylate synthase inhibitors, primary screen, biochemical, fluorescence intensity; P9WFX0; purified MbtI enzyme, fluorescence intensity read-out; inhibition, %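 (about 17 µg/mL by stock and volumes)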; 100,000 tested, 0.89% active; AID 493033, 2011;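 active means above 50% in both replicates, above 80% if mildly self-fluorescent; inactive means the rest, strongly fluorescent compounds included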;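 further: 0% = mean of negative and 100% = mean of positive controls; one replicate is shown; some compounds called inactive have numbers as strong as hits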
MenB inh: M. tuberculosis MenB inhibitors, primary screen, biochemical, absorbance | MenB enzyme assay, absorbance read-out; some hits fall short of the stated cut | AID 540299, 2011 | 100,000 tested, 0.43% active | inhibition, %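 (about 12 µg/mL by stock and volumes)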;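 active means mean of two replicates above 30%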;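 further: 0% = no compound and 100% = wells with inactive enzyme; the first replicate is given; strong numbers were not always called active; inactives centre near -10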
Target sequence (P9WNP5 whole entry, looked up): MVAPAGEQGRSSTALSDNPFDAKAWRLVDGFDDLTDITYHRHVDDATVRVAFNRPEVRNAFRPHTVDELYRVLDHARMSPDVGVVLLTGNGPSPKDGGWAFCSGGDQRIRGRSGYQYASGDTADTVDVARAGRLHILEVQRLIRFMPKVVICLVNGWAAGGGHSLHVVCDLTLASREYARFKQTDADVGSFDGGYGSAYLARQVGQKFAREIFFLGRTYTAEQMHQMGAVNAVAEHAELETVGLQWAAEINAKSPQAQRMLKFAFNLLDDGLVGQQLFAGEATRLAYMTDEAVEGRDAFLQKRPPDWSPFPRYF
Polio RdRp inh intensity: also measured in Polio RdRp inh; calls as there; % elongation; measured here: total intensity read-out; formula for this scale not given here;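 total fluorescence in place of polarization; lower means less elongation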
Numbers without * were called inactive; . = no result given; & = joins results of further samples; ! = not active in a repeat. Outcome played no part in choosing rows; any-hit rate near 1.7%.

Values run as follows: Polio RdRp inh, Polio RdRp inh intensity, Mtb MbtI inh, MenB inh
CC(C)CCNC(=O)c1ccc(CS(=O)(=O)Cc2ccc(F)cc2)o1
 : 101, 102, -6, -14
CCN1CCCC1CNC(=O)c1cc(S(N)(=O)=O)ccc1OC (configuration not stated)
 : 103, 100, -9, 5
O=C(OCC(=O)c1ccc[nH]1)c1ccc(-n2cnnn2)cc1
 : 102, 112, -3, -3
CC1CCCC(n2cnc3cc(C(=O)O)ccc32)C1C (configuration not stated)
 : 100, 102, 15, -3
COc1cccc(-c2nn(-c3ccccc3)c3c2cnc2ccccc23)c1
 : 102, 108, -2, -40
CC(=O)Nc1ccc(-c2nc3ncccc3o2)cc1C
 : 104, 102, 83, -13
CN=C(Nc1ccc(C(=O)OC)cc1)c1ccccc1
 : 103, 106, 10, -8
Cc1occc1-c1nnc(SCC(=O)N2CCCC(C)C2)n1CC1CCCO1 (configuration not stated)
 : 103, 102, -8, -4
CCOC(=O)/C(C#N)=C/Nc1nc2c(OC)cccc2s1
 : 102, 103, 44, -14
CC(C)CC(C(=O)Oc1ccc2c3c(c(=O)oc2c1)CCC3)N1C(=O)c2ccccc2C1=O (configuration not stated)
 : 103, 106, -13, -3
COc1ccc(CN2CCC(C(=O)NCc3ccc(C)cc3)CC2)cc1
 : 102, 106, ., 7
Cc1cc(C(=O)CSc2ncccn2)c(C)n1Cc1ccccc1
 : 106, 109, 24, -14
c1c2c(cc3sc(N4CCCC4)nc13)OCO2
 : 103, 107, -4, -27
COc1ccc(C(N)=CC(=O)OC(C)(C)C)cc1
 : 99, 100, 1, -2
O=C(COc1ccc2oc(-c3ccco3)cc(=O)c2c1)NCc1ccccc1
 : 89, 125, 135, 0
CCN1CCc2nc3ccccc3c(C(=O)O)c2C1
 : 103, 99, -2, .
O=C(c1ccccc1)c1ccc(Oc2ncccn2)cc1
 : 106, 103, 6, -19
COc1ccc(NC(=O)N2CCCC(C(N)=O)C2)cc1 (configuration not stated)
 : 105, 102, -20, -22
Cc1ccccc1N1CCN(C(=O)c2c(C)oc3cc4c(C(=O)N5CCN(c6ccccc6C)CC5)c(C)oc4cc23)CC1
 : 103, 101, -2, 0
CCc1ccc(NC(=O)N2CCCCC2C)cc1 (configuration not stated)
 : 104, 103, -17, -7
CC(=O)Oc1cc(-c2cccc(C(F)(F)F)c2)c2oc(=O)sc2c1
 : 104, 104, 5, -109
CSc1nc2c(=S)[nH]c(=S)[nH]c2s1
 : 82*, 77*, 55*, -95
COc1ccc(CCNc2ncnc3c2cnn3-c2ccc(F)cc2)cc1OC
 : 101, 100, -43, -26
CCOC(=O)c1cc(-n2cccc2)ccc1N1CCCCC1
 : 101, 101, 16, 10
CC1SC(=NC(=O)c2ccco2)NC1=O (configuration not stated)
 : 103, 99, 37, -44
CCc1c(N)n[nH]c1C
 : 102, 101, -6, 1
CCS(=O)(=O)Nc1ccc(OC)c(Cl)c1
 : 100, 102, -19, -52
Cc1cc(COC(=O)C23CCC(=O)N2c2ccccc2C(=O)N3C2CC2)no1 (configuration not stated)
 : 105, 110, 1, -17
CCN(c1ccccc1)S(=O)(=O)c1ccc(N2CCN(CC(=O)N3CCCCCC3)CC2)nc1
 : 109, 106, 7, -17
CC(Sc1nnc(-c2ccc3c(c2)OCO3)o1)C(=O)N1CCc2ccccc2C1 (configuration not stated)
 : 107, 115, -5, -25

An excerpt from above in order of count of non-hydrogen atoms, low to high.
Values run as follows: Polio RdRp inh, Polio RdRp inh intensity, Mtb MbtI inh, MenB inh
c1c2c(cc3sc(N4CCCC4)nc13)OCO2
 : 103, 107, -4, -27
CCN1CCc2nc3ccccc3c(C(=O)O)c2C1
 : 103, 99, -2, .
CC1CCCC(n2cnc3cc(C(=O)O)ccc32)C1C (configuration not stated)
 : 100, 102, 15, -3
O=C(OCC(=O)c1ccc[nH]1)c1ccc(-n2cnnn2)cc1
 : 102, 112, -3, -3
CCN1CCCC1CNC(=O)c1cc(S(N)(=O)=O)ccc1OC (configuration not stated)
 : 103, 100, -9, 5

Going on with the list:
Values run as follows: Polio RdRp inh, Polio RdRp inh intensity, Mtb MbtI inh, MenB inh
CC(C)CCNC(=O)Cn1nc(-c2ccccc2)ccc1=O
 : 100, 105, 20, -1
CC1CCCC(C)N1C(=O)Cn1nc(C(=O)O)c2ccccc2c1=O (configuration not stated)
 : 98, 94, 18, 3
CC1=CC(c2ccccc2)n2nc(N)nc2N1 (configuration not stated)
 : 104, 100, 86, .
CC(C(=O)O)c1ccc(N2Cc3ccccc3C2=O)cc1 (configuration not stated)
 : 102*!, 102*!, -4&-5, -14&-4
O=C(Cc1c[nH]c2ccccc12)OCC(=O)c1cc2ccccc2o1
 : 117, 129, -16, -51
Cc1n[nH]c(C)c1C(C)N (configuration not stated)
 : 102, 101, -1, 3
C=C1C(C(=O)Nc2cccc(OC)c2)C1C(=O)Nc1cccc(OC)c1 (configuration not stated)
 : 101, 96, -3, .
NNc1ccc2nc3ccccc3c(=O)n2n1
 : 102, 109, -11, -47
Cc1ccc(-c2csc3nnc(SCC(N)=O)n23)cc1
 : 102, 102, 4, 37*
CC(c1ccco1)N(C(=O)c1ccc(-c2ccccc2)cc1)c1ccccn1 (configuration not stated)
 : 106, 111, -9, -5
O=C(CCn1c(SCC(=O)c2ccc(F)cc2)nc2cc3c(cc2c1=O)OCO3)NCc1ccc2c(c1)OCO2
 : 100, 102, -16, 3
CCOC(=O)C1(c2ccccc2)CCN(CCOc2ccccc2)CC1
 : 97, 102, ., 0
Nn1c(SCC(=O)Nc2ccc(S(=O)(=O)N3CCCC3)cc2)nnc1-c1ccccc1
 : 76*, 80*, 88*, -38
O=C(COC(=O)Cc1cccc2ccccc12)Nc1ccccc1F
 : 99, 100, 19, .
O=C1C(=O)N(c2cccnc2)C(c2ccc(O)cc2)/C1=C(\O)c1ccc(Br)cc1 (configuration not stated)
 : 102, 100, 5, -14
N#C/C(=C(/O)c1ccc(Br)s1)c1nc2ccccc2[nH]1
 : 102, 100, 1, 4
CCSc1cc(CC)sc1C(=O)O
 : 100, 102, ., 4
CC1CN(C(=O)c2cccc(C(=O)N3CC(C)OC(C)C3)c2)CC(C)O1 (configuration not stated)
 : 99, 107, ., 4
CC(C)c1ccc(NC(=O)Cn2cccc2)cc1
 : 104, 107, -5, -13
CSC(=S)N(C=O)c1ccc(C)cc1
 : 107, 110, -7, -15
O=C(Nc1ccc(-c2nc3ccccc3[nH]2)cc1)c1cc(-c2ccco2)nc2ccccc12
 : 105, 108, 105, -43
CCNC(=O)/C=C/c1ccc(Cl)c(Cl)c1
 : 100, 106, 25, -5
Clc1ncnc2[nH]ncc12
 : 100, 101, -4, 8
Cc1cc2c(c(=O)o1)C(c1ccc(F)cc1)C(C#N)=C(N)O2 (configuration not stated)
 : 99, 89, ., -32
CC(C)NC(=S)N1CCN(S(=O)(=O)c2cccc(C(F)(F)F)c2)CC1
 : 101, 104, -1, -14
Cn1c(=O)n(C)c2cc(/C=N/NC(N)=S)ccc21
 : 102, 101, -15, -32
COC(=O)c1ccc(NS(=O)(=O)c2cc(Cl)ccc2OC)cc1
 : 105, 101, -15, -47
CC1(C)Cc2ccccc2C(CSc2nc3c(c(C(F)(F)F)n2)CCCC3)=N1
 : 104, 103, ., 2
Cc1cc(N)n(-c2ccccc2C(F)(F)F)n1
 : 102, 104, -10, .
C=CCSc1nc(C)c2cc(C)cc(C)c2n1
 : 101, 104, 89, -18

Quoted at random: 4 records from the list.
Values run as follows: Polio RdRp inh, Polio RdRp inh intensity, Mtb MbtI inh, MenB inh
Cc1cc(N)n(-c2ccccc2C(F)(F)F)n1
 : 102, 104, -10, .
CC(c1ccco1)N(C(=O)c1ccc(-c2ccccc2)cc1)c1ccccn1 (configuration not stated)
 : 106, 111, -9, -5
Clc1ncnc2[nH]ncc12
 : 100, 101, -4, 8
CC(C)CCNC(=O)Cn1nc(-c2ccccc2)ccc1=O
 : 100, 105, 20, -1

Other results
Values run as follows: Polio RdRp inh, Polio RdRp inh intensity, Mtb MbtI inh, MenB inh
CCN(CC)c1nc(Nc2cc(C)ccc2C)nc(Nc2ccccc2OC)n1
 : 100, 100, ., -35
COC(=O)c1ccccc1NC(=O)C(C)N(c1ccccc1)S(C)(=O)=O (configuration not stated)
 : 102, 103, -37, -26
COc1cc(C)nc2nc(S(C)(=O)=O)nn12
 : 109, 115, -6, -5
Oc1ccc2ccccc2c1CN1CCCC(C(F)(F)F)C1 (configuration not stated)
 : 104, 109, -9, -1
O=C(CCc1nc2cccnc2n1-c1ccccc1)NCCc1ccccc1
 : 102, 100, 2, 4
CS(=O)(=O)N1CCN(S(C)(=O)=O)CC1
 : 103, 104, 0, 15
O=S(=O)(NC1CCN(Cc2ccccc2)CC1)c1cccs1
 : 104, 105, ., -24
C=CCN(CC=C)Cc1c(C)[nH]c2ccc(Br)cc2c1=O
 : 101, 106, 0, 5
CCOC1CCCCC1NS(=O)(=O)c1ccc(Cl)cc1 (configuration not stated)
 : 101, 99, -15, .
C=CCNc1nc2c([nH]c3ccccc32)s1
 : 100, 103, 29, 10
O=C(O)c1cc(NNC(=S)NC2CCCCC2)ccc1Cl
 : 100, 106, 6, -41
Cc1ccc(CN(C)C(=O)c2cc3c(C)nn(-c4ccc(F)cc4)c3s2)o1
 : 103, 105, 23, -36
CCOC(=O)c1ccc(N=Cc2ccc(CC)cc2)cc1
 : 97, 102, ., 7
COC(=O)CN1C(=S)N(c2ccccc2)C(=O)/C1=C/c1ccc(-c2ccc(Cl)cc2)o1
 : 97, 111, -4, -6
N#CC1(C#N)C(c2ccc(Cl)c(Cl)c2)C1(C#N)C#N
 : 100, 99, 33, 17
COc1cccc(CNC(=O)CCCN2C(=O)COc3ccc(C)cc32)c1
 : 103, 103, -1, -14
CN=c1scc(-c2ccccc2)n1/N=C/c1ccsc1
 : 100, 110, -4, -31
COc1ccccc1Nc1nc(Nc2cccc(C(F)(F)F)c2)nc(N2CCOCC2)n1
 : 99, 104, 67, 21
Cc1oc2ncn(C)c(=O)c2c1C(=O)OCc1c(F)cccc1Cl
 : 108, 117, 3, -21
Cc1ccc(S(=O)(=O)Nc2ccccc2Oc2ccccc2)cc1
 : 108, 112, -8, -9
COc1ccc(CCNC(=O)c2ccc3c(c2)NC(=O)/C(=C\c2ccc(C)cc2)S3)cc1OC
 : 102, 99, -1, -9
CCC(C)[C@@H](C(=O)Nc1ccc2c(c1)OCO2)N1Cc2ccccc2C1=O (some centres not stated)
 : 101, 101, -4, -30
O=C(NCC(=O)N1CCCCC1)c1ccccc1
 : 103, 103, -21, 0
O=C(NNc1ncccc1C(F)(F)F)c1cccc(C(F)(F)F)c1
 : 99, 100, 8, -18
COc1ccc(/C=C(\C#N)C(=O)Nc2nccs2)cc1O
 : 95, 93, 7, -158
CCOC(=O)c1c(CSc2nc3ccccc3[nH]2)n(-c2ccccc2)c2ccc(OC(C)=O)cc12
 : 103, 109, 0, -20
CCOc1ccc2nc(NN)c(C3OCCO3)cc2c1
 : 103, 101, 90, -48
COc1cc(OC)cc(N2C(=O)Cc3c2nc2c4c(nc(N5CCCC5)c(C#N)c34)N=C(C)N2)c1
 : 99, 106, 20, 6
Cc1ccc2c(c1)nc(NCCO)n2C
 : 101, 104, -11, 10
Cn1c(/N=C/c2cc(C(C)(C)C)c(O)c(C(C)(C)C)c2)nc2ccccc21
 : 124, 130, 0, -54
C#CCN1C(=O)S/C(=C/c2ccccc2)C1=O
 : 101, 103, -11, -32
O=C(COC(=O)C1CC(=O)N(CCc2ccccc2)C1)NC1CC1 (configuration not stated)
 : 95, 103, 2, -1
N#Cc1ccccc1S(=O)(=O)N1CCN(c2nc(-c3ccccc3)nc3ccccc23)CC1
 : 103, 104, 4, -20
CC(C)C1NC(=S)NC2=C1CCCC2 (configuration not stated)
 : 103, 106, -4, -18
O=C(c1cc2c(s1)CCC2)N1CCc2ccccc2C1
 : 104, 94, 0, .
O=C(Nc1sc2c(c1C(=O)O)CCC2)c1ccco1
 : 103, 104, -8, 2
Oc1cccc2c(Cl)ccc(Cl)c12
 : 100, 103, -11, -76
CC(=O)N(C)CC(=O)Nc1cccc2ccccc12
 : 104, 104, -5, -18
Cc1ccc(SCC(=O)NC(C)(C)C)cc1
 : 102, 106, ., -15
Nc1nc2ccc(CCC(=O)O)cc2s1
 : 101, 100, 98, -16
COCCN=c1scc(-c2ccc(C)c(C)c2)n1/N=C(\C)c1ccc(-n2ccnc2)cc1
 : 100, 102, 2, -30
COc1ccccc1Cn1[nH]nnc1=S
 : 95, 95, 28, -10
CCc1cc2c[n+](C3CCCCC3)sc2s1
 : 104, 101, 42, -204
Cc1ccc(S(=O)(=O)N2CN(CC3CCCO3)c3nc4ccccc4nc32)cc1C (configuration not stated)
 : ., ., -8, 2
CC(=O)Nc1cccc(OC(=O)N(C)C)c1
 : 99, 103, -7, -13
COc1ccc(S(=O)(=O)N(Cc2nc(-c3ccc(OC)c(OC)c3)no2)C(C)C)cc1
 : 100, 101, -3, -57
CN(C)C(=O)CSc1nnc(N)s1
 : 106, 107, ., -12
